Rango complex inh: qHTS Assay for Inhibitors of Rango (Ran-regulated importin-beta cargo) - Importin beta complex formation | Rango CFP/YFP FRET sensor + importin beta, 45 min | Potency, µM (series often up to 92.2 µM), for the others: top-dose inhibition of complex formation | actives 0.031% (n = 340,000) | AID 540263, 2011; active = rising FRET ratio curve, often small or poorly fitted; inconclusive = mostly compound fluorescence or quenching in the first reads; inactive = flat curves in all reads;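 further: potency means the concentration at half of the fitted maximal effect; 0% = DMSO wells and 100% = buffer wells lacking importin beta; nearly all actives have a fitted effect of over 15% in size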
Target sequence (Q14974 whole entry, looked up): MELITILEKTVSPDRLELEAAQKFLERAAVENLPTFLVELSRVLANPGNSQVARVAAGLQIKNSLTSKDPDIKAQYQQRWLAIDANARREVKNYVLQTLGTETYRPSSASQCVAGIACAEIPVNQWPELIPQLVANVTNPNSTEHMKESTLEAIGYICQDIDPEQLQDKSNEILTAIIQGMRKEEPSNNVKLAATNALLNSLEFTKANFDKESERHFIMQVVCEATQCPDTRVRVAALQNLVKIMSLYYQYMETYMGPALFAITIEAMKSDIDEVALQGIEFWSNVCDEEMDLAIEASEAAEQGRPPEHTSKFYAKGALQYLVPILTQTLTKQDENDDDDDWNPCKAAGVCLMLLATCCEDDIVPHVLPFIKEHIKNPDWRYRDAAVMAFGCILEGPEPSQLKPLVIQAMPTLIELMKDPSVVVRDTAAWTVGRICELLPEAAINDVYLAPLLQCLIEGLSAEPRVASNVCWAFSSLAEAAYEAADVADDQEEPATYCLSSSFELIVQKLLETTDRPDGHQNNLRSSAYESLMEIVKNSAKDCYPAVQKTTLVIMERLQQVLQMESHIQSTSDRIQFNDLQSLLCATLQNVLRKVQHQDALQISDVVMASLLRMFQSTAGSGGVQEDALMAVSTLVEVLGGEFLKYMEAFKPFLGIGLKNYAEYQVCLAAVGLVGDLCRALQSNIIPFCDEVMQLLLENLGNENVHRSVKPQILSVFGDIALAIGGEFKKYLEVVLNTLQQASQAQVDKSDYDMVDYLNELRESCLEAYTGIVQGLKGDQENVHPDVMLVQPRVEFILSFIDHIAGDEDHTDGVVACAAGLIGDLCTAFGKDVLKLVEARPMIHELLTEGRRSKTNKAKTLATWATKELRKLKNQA
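FRET biosensor (snurportin 1 IBB flanked by EYFP and cerulean), 50 nM, with compound 5 min, then 0.125 microM importin beta in PBS, 1 mM DTT, 0.02% Tween-20, 0.1% BSA. CFP/YFP ratio read after 45 min at room temperature; pre-read flags interference.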
Rango dissoc inh: qHTS Assay for Inhibitors of RanGTP induced Rango (Ran-regulated importin-beta cargo) - Importin beta complex dissociation | Snurportin-1 (Homo sapiens) + GTP-binding nuclear protein Ran (Homo sapiens) + Importin … | Biochemical FRET Rango-importin beta, RanGTP-induced dissociation | Potency, µM (highest dose often 46.1 µM), inactives show top-dose activity change, negative = inhibition | actives 0.071% (n = 340,000); active means falling FRET ratio curve, often poorly fitted, with flat reads before Ran was added; inconclusive means other falling curves, or compound fluorescence or quenching; inactive means flat or rising ratio curve;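 further: potency means the concentration at half of the fitted maximal effect; % of control where 0% means no effect; nearly all actives have a fitted effect of over 45% in size; -100% = wells without RanGTP and RCC1; the record marks most hits as doubtful in a second field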
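Recombinant Rango FRET biosensor (EYFP–snurportin 1 IBB–cerulean CFP10) at 0.1 uM premixed with 0.25 uM importin beta in PBS, 1 mM DTT, 0.02% Tween-20, 0.1% BSA. Compound added 5 min; RanGTP-RCC1 (0.6 uM Ran, 2 mM GTP, 0.2 uM RCC1) then triggers release, read at 45 min.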
miR-21 FLuc: qHTS Assay for Modulators of miRNAs and/orActivators of miR-21; HeLa miR-21 FLuc reporter, luciferase, 48 h; Potency, µM (top dose mostly 38.3 µM), for inactives: top-dose reporter change, positive = more light; 340,000 tested, under 10 active; active = well fitted rising curve with a large enough effect; inconclusive = small, poorly fitted or top-dose-only effect; inactive = no such curve, though single readings can be large or run the other way;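 further: % of control where 0% means no effect; miR-21 action dims this reporter so a rising signal means less miR-21 action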
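HeLa miR-21-FLuc reporter line, endogenous miR-21; 2000 cells/well in DMEM/10% FBS; compound titration up to ~40uM final, 48 h, 37 degree Celsius; luciferase detection reagent, 15 min lysis, CCD luminescence.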
GLA inh pH 4.5: qHTS Assay for Inhibitors of Human alpha-Galactosidase at pH 4.5. AID 1467, 2008. activity change, negative = inhibition, % at 105 µM. 230,000 tested, under 10 active. purified enzyme, 4-MU-alpha-Gal fluorescence, pH 4.5. Alpha-galactosidase A (Homo sapiens), P06280; inconclusive = small, poorly fitted or top-dose-only inhibition, or a rising curve; inactive = flat fitted curve, though single readings scatter; no compound was filed as active;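 further: 0% = full activity with enzyme and -100% = basal without enzyme; dose as in the result columns while the protocol names 77 µM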
* = called active by the depositor; & = joins results of further samples. Some of the compounds tested; count on the stated rates, not on these rows.

Preview (3 entries):
`CC1(C)CC(=O)C(C(C2=C(O)CC(C)(C)CC2=O)c2ccc(Br)s2)C(=O)C1` (stereo not given) gave Rango complex inh 0.0%, Rango dissoc inh 6%, miR-21 FLuc 18% and GLA inh pH 4.5 6.
Screening COC(=O)c1c(C)oc2c1cc(NS(=O)(=O)c1ccc(C(=O)O)cc1)c1ccccc12 returned Rango complex inh inconclusive, Rango dissoc inh -17% and miR-21 FLuc 0%.
O=C(NCc1c[nH]c2ccccc12)c1ccccc1 was read as Rango complex inh 5.6% and Rango dissoc inh -6%.

This part in full, from the first entry:
`CC1(C)CC(=O)C(C(C2=C(O)CC(C)(C)CC2=O)c2ccc(Br)s2)C(=O)C1` (stereo not given) gave Rango complex inh 0.0%, Rango dissoc inh 6%, miR-21 FLuc 18% and GLA inh pH 4.5 6.
Screening COC(=O)c1c(C)oc2c1cc(NS(=O)(=O)c1ccc(C(=O)O)cc1)c1ccccc12 returned Rango complex inh inconclusive, Rango dissoc inh -17% and miR-21 FLuc 0%.
O=C(NCc1c[nH]c2ccccc12)c1ccccc1 was read as Rango complex inh 5.6% and Rango dissoc inh -6%.
COC(=O)c1ccc(NC(=O)c2cccc(N3C(=O)CCC3=O)c2)cc1 was read as Rango complex inh -3.9% and Rango dissoc inh 1%.
Screening COc1ccc(CN(C)C(=O)C2CSC3(C)CCC(=O)N23)cc1OC (stereo not given) returned Rango complex inh 2.8% and Rango dissoc inh 3%.
For CCOC(=O)CC(=O)CSc1nc(CC)c(C)cc1C#N the results were Rango complex inh inconclusive, Rango dissoc inh inconclusive, miR-21 FLuc -19% and GLA inh pH 4.5 11.
`C/C=C(\C)C(=O)N1CC2(CC(c3cccc(NC(=O)CCCCC)c3)=NO2)C[C@@H]1C(N)=O` (stereo not given in full) gave Rango complex inh 1.5%, Rango dissoc inh -6%, miR-21 FLuc 1% and GLA inh pH 4.5 0.
For c1cncc(-c2nc(-c3ccco3)cs2)c1 the results were Rango complex inh -2.8%, Rango dissoc inh 1%, miR-21 FLuc -11% and GLA inh pH 4.5 -6.
`CCC(C)NC(=O)c1ccc(C2SCC(=O)N2Cc2ccccc2)cc1` (stereo not given) gave Rango complex inh 4.7%, Rango dissoc inh 3%, miR-21 FLuc -17% and GLA inh pH 4.5 -3.
For O=C(C1CCCN(S(=O)(=O)c2ccc(Br)s2)C1)N1CCN(c2ccccc2)CC1 (stereo not given) the results were Rango complex inh -6.0%, Rango dissoc inh -25% and miR-21 FLuc 20%&27%.
Screening CCCC(C(=O)NCc1ccco1)N(C(=O)CNS(=O)(=O)c1ccc(Cl)cc1)C1CCCC1 (stereo not given) returned Rango complex inh -0.5%, Rango dissoc inh 8%, miR-21 FLuc -5% and GLA inh pH 4.5 5.
Cc1ccc(C2OC34CCCCCC3C(C#N)(C(=N)O4)C2(C#N)C#N)cc1 (stereo not given) was read as Rango complex inh inconclusive, Rango dissoc inh inconclusive, miR-21 FLuc -9% and GLA inh pH 4.5 inconclusive.
COC(=O)c1cc2c(ccn2-c2ccc(F)cc2)n1Cc1ccc(OC(C)=O)cc1 was read as Rango complex inh inconclusive, Rango dissoc inh -13%, miR-21 FLuc -67% and GLA inh pH 4.5 6.
Screening N#CCSCC(=O)Nc1ccc(Cl)cc1 returned Rango complex inh -0.1%, Rango dissoc inh 17%, miR-21 FLuc 0% and GLA inh pH 4.5 -7.
For Cc1c(C(=O)N2CCOCC2)sc(NC(=O)C(C)C)c1C#N the results were Rango complex inh -1.4%, Rango dissoc inh -1% and miR-21 FLuc -1%.
For COCCN(C(=O)CSc1nc2nc(C)cc(C)n2n1)c1c(N)n(Cc2ccccc2)c(=O)[nH]c1=O the results were Rango complex inh -8.6%, Rango dissoc inh 20%, miR-21 FLuc -1% and GLA inh pH 4.5 6.
`O=C(Nc1ccon1)C1CCN(S(=O)(=O)c2cccs2)CC1` gave Rango complex inh -0.1%, Rango dissoc inh 6%, miR-21 FLuc -2% and GLA inh pH 4.5 2.
O=C(Nc1ccc(Cl)cc1)Nc1cccc(C(=O)O)c1 was read as Rango complex inh -1.4%, Rango dissoc inh -6%, miR-21 FLuc -37% and GLA inh pH 4.5 4.
`CCCNC(=O)C(Cc1ccc(OC)cc1)NC(=O)c1ccc(C#N)cc1` (stereo not given) gave Rango complex inh -0.1% and Rango dissoc inh 34%.
`COc1cc(/C=C/C(=O)OCC(=O)Nc2oc(C)c3c(C)n[nH]c(=O)c23)ccc1OC(F)F` gave Rango complex inh 0.3% and Rango dissoc inh -8%.
Cc1oc2c(CN3CCCC3)c(O)ccc2c(=O)c1Oc1ccccc1Br was read as Rango complex inh 2.7%, Rango dissoc inh 7%, miR-21 FLuc -1% and GLA inh pH 4.5 -6.
O=C1CCCC(O)=C1C1C2=C(CCCC2=O)OC2=C1C(=O)CCC2 was read as Rango complex inh -2.1%, Rango dissoc inh 1%, miR-21 FLuc -1% and GLA inh pH 4.5 11.
`Cc1ccc(-c2n[nH]c(=O)c3ccccc23)cc1S(=O)(=O)Nc1ccccc1` gave Rango complex inh 1.2%, Rango dissoc inh 2%, miR-21 FLuc 16% and GLA inh pH 4.5 5.
CC(=O)OCC(=O)[C@@]1(O)CCC2C3CCC4=CC(=O)CCC4(C)C3C(=O)CC21C (stereo not given in full) was read as Rango complex inh 2.5%, Rango dissoc inh -6% and miR-21 FLuc 2%.
COc1ccc(-c2nc(CSCC(=O)N3CCN(C)CC3)c(C)o2)cc1OC was read as Rango complex inh -1.1%, Rango dissoc inh 7%, miR-21 FLuc -5% and GLA inh pH 4.5 1.
`Nc1c(C(=O)NCCC2=CCCCC2)sc2ccc(S(=O)(=O)N3CCCCC3)cc12` gave Rango complex inh -6.0%, Rango dissoc inh 2%, miR-21 FLuc 16% and GLA inh pH 4.5 -3.
Screening O=C(CCSc1nnc2scc(-c3ccccc3)n12)Nc1nc(-c2ccccc2)ns1 returned Rango complex inh 0.2%, Rango dissoc inh -3%, miR-21 FLuc 0% and GLA inh pH 4.5 -1.
Screening CCn1cc(CN2CCC(n3nccc3NC(=O)C3CCCC3)CC2)c(C)n1 returned Rango complex inh 3.1%, Rango dissoc inh 4% and miR-21 FLuc 1%.
For COc1cccc(/C=C/C(=O)OCC(=O)Nc2cccc(S(=O)(=O)NC3=NCCCCC3)c2)c1 the results were Rango complex inh 7.7% and Rango dissoc inh -15%.
For Clc1ccccc1CSc1nnc(-c2cccnc2)n1Cc1ccco1 the results were Rango complex inh -1.6%, Rango dissoc inh -19%, miR-21 FLuc -14% and GLA inh pH 4.5 -7.
`O=C(NNc1ccc(Cl)nn1)c1ccc(Cl)cc1` gave Rango complex inh -0.6%, Rango dissoc inh -3%, miR-21 FLuc -6% and GLA inh pH 4.5 2.
Screening COc1cccc(OC)c1OCCN1CCN(C(c2ccccc2)c2ccccc2)CC1 returned Rango complex inh 3.3%, Rango dissoc inh 1% and miR-21 FLuc 24%.
Screening CCOC(=O)C1=C(C)NC(=O)NC1c1ccc(NC(C)=O)cc1 (stereo not given) returned Rango complex inh -2.9%, Rango dissoc inh -9%, miR-21 FLuc 0% and GLA inh pH 4.5 0.
Screening O=C(N/C(=C\c1ccco1)C(=O)N1CCCCC1)c1ccc([N+](=O)[O-])cc1 returned Rango complex inh 0.9% and Rango dissoc inh 1%.
O=C(O)C1=C[C@@H](c2coc3ccccc3c2=O)C[C@@H](OCCCCO)O1 was read as Rango complex inh -1.5%, Rango dissoc inh -7%, miR-21 FLuc -3% and GLA inh pH 4.5 4.
For COC(=O)c1sccc1NC(=O)c1ccc(C)o1 the results were Rango complex inh 0.1%, Rango dissoc inh -23%, miR-21 FLuc -8% and GLA inh pH 4.5 2.
For Cc1onc(-c2c(F)cccc2Cl)c1C(=O)Nc1ccc(S(=O)(=O)N2CCOCC2)cc1 the results were Rango complex inh 0.1% and Rango dissoc inh -1%.
COC(=O)c1cn(C(=O)c2ccc(OC)cc2)c2ccccc12 was read as Rango complex inh 5.4%, Rango dissoc inh 9% and miR-21 FLuc 11%.
COc1ccc(OC)c(C2CC(=O)c3c([nH]c(C(=O)OCC4CCCO4)c3C)C2)c1 (stereo not given) was read as Rango complex inh -14%, Rango dissoc inh -9%, miR-21 FLuc -5% and GLA inh pH 4.5 4.
Screening CCCN1CN(Cc2ccccc2)CC2=C1CC(C)(C)CC2=O returned Rango complex inh 1.5%, Rango dissoc inh 23%, miR-21 FLuc 0% and GLA inh pH 4.5 -3.
Screening COCCCn1c(C)nnc1SCC(=O)Nc1cccc(C)c1 returned Rango complex inh 7.1%, Rango dissoc inh -13% and miR-21 FLuc 2%.
`CCOc1cc(CNc2ccc3c(c2)CCC3)ccc1O` gave Rango complex inh -0.1%, Rango dissoc inh -17%, miR-21 FLuc -27% and GLA inh pH 4.5 2.
`CCC(=O)Nc1nnc(Sc2ccc(N(C)C)cc2)s1` gave Rango complex inh -3.0%, Rango dissoc inh 0%, miR-21 FLuc -3% and GLA inh pH 4.5 3.
For CC(C)C(=O)NC(C)C(c1cccs1)N1CCN(C)CC1 (stereo not given) the results were Rango complex inh -0.2%, Rango dissoc inh -10%, miR-21 FLuc 0% and GLA inh pH 4.5 5.
For CSCC[C@H](NC(=O)OC(C)(C)C)C(=O)N/N=C/c1cccc2nccnc12 the results were Rango complex inh -1.9%, Rango dissoc inh 7%, miR-21 FLuc 8% and GLA inh pH 4.5 8.
`CC(=O)c1c(C)[nH]c(C(=O)N(CCc2ccccc2)Cc2ccccc2)c1C` gave Rango complex inh -1.0%, Rango dissoc inh -2%, miR-21 FLuc 5% and GLA inh pH 4.5 -4.
`COc1ccc(C2CC(c3ccc(Br)cc3)=NN2C(=O)CSC2=NN3CCCC(=O)N=C3S2)cc1` (stereo not given) gave Rango complex inh -2.7%, Rango dissoc inh 4% and miR-21 FLuc -1%.
Cc1ccc(C(=O)Nc2ncn[nH]2)cc1 was read as Rango complex inh 0.6%, Rango dissoc inh 1% and miR-21 FLuc -3%.
Screening CCCn1c(C)cc(-c2csc(N)n2)c1C returned Rango complex inh inconclusive, Rango dissoc inh inconclusive, miR-21 FLuc -1% and GLA inh pH 4.5 4.
`S=c1[nH]nc(CNc2cccc(Cl)c2)o1` gave Rango complex inh 0.1%, Rango dissoc inh -11%, miR-21 FLuc 1% and GLA inh pH 4.5 -3.
For CC(C)(CN1CCCC1)NS(=O)(=O)c1ccc(Cl)cc1 the results were Rango complex inh -3.8%, Rango dissoc inh -7% and miR-21 FLuc -2%.
O=C1CCCS(=O)(=O)c2ccccc21 was read as Rango complex inh inconclusive, Rango dissoc inh 7%, miR-21 FLuc 0% and GLA inh pH 4.5 -3.
For Cc1cc2nnn(-c3nnc(-c4ccccc4)c4ccccc34)c2cc1C the results were Rango complex inh 5.6%, Rango dissoc inh 10%, miR-21 FLuc 1% and GLA inh pH 4.5 7.
Screening CCc1nn(C(CC)C(=O)NCc2cccs2)c(=O)c2cc3occc3n12 (stereo not given) returned Rango complex inh 1.3%, Rango dissoc inh 13% and miR-21 FLuc -4%.
For CCOC(=O)C1CCCN(Cc2nc(Cc3cccc(F)c3)no2)C1 (stereo not given) the results were Rango complex inh 1.6%, Rango dissoc inh 2% and miR-21 FLuc -2%.
CC1=CCC(C(=O)O)(C(=O)N/N=C/c2cccnc2)C(c2ccccc2)C1 (stereo not given) was read as Rango complex inh -0.8%, Rango dissoc inh -1%, miR-21 FLuc 0% and GLA inh pH 4.5 1.

For convenience, some entries already given.
Screening CCc1nn(C(CC)C(=O)NCc2cccs2)c(=O)c2cc3occc3n12 (stereo not given) returned Rango complex inh 1.3%, Rango dissoc inh 13% and miR-21 FLuc -4%.
For CCOC(=O)C1CCCN(Cc2nc(Cc3cccc(F)c3)no2)C1 (stereo not given) the results were Rango complex inh 1.6%, Rango dissoc inh 2% and miR-21 FLuc -2%.
